Screening data from PubChem BioAssay.
nsP2pro primary = CHIKV nsP2 protease inhibition, primary qHTS; Potency, µM (top dose mostly 24.9 µM), without a hit: at the top dose activity change, negative = inhibition, actives largely listed as inhibitors; 31,000 tested, 1.1% active; FRET peptide cleavage, nsP2pro, fluorescence 1 h; Q8JUX6; active means well fitted inhibition curve with a large enough effect; inconclusive means small, poorly fitted or top-dose-only effect; inactive means no such curve, though single readings can be large or run the other way; also: nearly all actives have a fitted effect of over 60% in size; a reference inhibitor and vehicle were the controls
Numbers without * were called inactive; ? = inconclusive; & = joins results of further samples; [ ] = dose if it differs, or a comment. % is scaled to controls: 0 for no effect and ±100 for the full control effect; potency is read from the fitted curve at half-maximal effect. These rows are one share of the data. The share of hits here may be higher or lower than overall.

CC[C@H](CO)Nc1nc(NCc2ccc(-c3ccccn3)cc2)c2ncn(C(C)C)c2n1
  nsP2pro primary: 10%

Cc1c(CN2CCN(C(=O)[C@H](C)O)CC2)sc2c(N3CCOCC3)nc(-c3cnc(N)nc3)nc12
  nsP2pro primary: -9%

COc1cc2c(cc1OC)-c1[nH]nc(Nc3cccc(F)c3)c1C2
  nsP2pro primary: 63%[activator]

C[N+]1(C)CCC(=C(c2ccccc2)c2ccccc2)CC1
  nsP2pro primary: -2%

Cc1cn([C@H]2O[C@@H](CO)[C@H](O)[C@H]2F)c(=O)[nH]c1=O
  nsP2pro primary: -15%

CCN(CC)C(=O)c1ccc(Nc2nc(OCC3CCCCC3)c3[nH]cnc3n2)cc1
  nsP2pro primary: 178%[activator]

COCCCNCC1COc2ccccc2O1 (stereo unspecified)
  nsP2pro primary: -11%

O=C(O)Cc1ccc2oc(-c3ccc(NC(=O)/C=C/c4ccc(Br)cc4)c(F)c3)nc2c1
  nsP2pro primary: 4%

CCCCNc1nc(N)c2[nH]c(=O)n(Cc3ccc(OCCN(C)C)nc3)c2n1
  nsP2pro primary: -2%

CCCCC(CC)CNC(=O)CC(C)OC(=O)CCC(=O)O (stereo unspecified)
  nsP2pro primary: -6%

CCCc1nc(C(C)(C)O)c(C(=O)O)n1Cc1ccc(-c2ccccc2-c2nn[nH]n2)cc1
  nsP2pro primary: -9%&-7%

CC(C)NCC(C(=O)N1CCN(c2ncnc3c2C(C)CC3O)CC1)c1ccc(Cl)cc1 (stereo unspecified)
  nsP2pro primary: 7%

COc1ccc([C@H]2CNC(=O)C2)cc1OC1CCCC1
  nsP2pro primary: -9%&-10%

COc1cc2ncnc(Nc3cccc(Cl)c3)c2cc1OC
  nsP2pro primary: 18%

CC(=O)Oc1ccc(C(=C2CCCCC2)c2ccc(OC(C)=O)cc2)cc1
  nsP2pro primary: 5%

COc1cc(C(c2c(C)[nH][nH]c2=O)c2c(C)[nH][nH]c2=O)ccc1OC(=O)c1cccc(C)c1
  nsP2pro primary: 62%[activator]

CN1C(=O)N[C@@H](Cc2c[nH]c3c(Cl)cccc23)C1=O
  nsP2pro primary: -1%

CC(C)(C)NS(=O)(=O)c1ccc(-c2ccc3[nH]nc(N)c3c2)cc1
  nsP2pro primary: 73%[activator]

O=S(=O)(NCC1CC1)c1ccc(Nc2nccc(N3CCCc4cc(O)ccc43)n2)cc1
  nsP2pro primary: ?

CO/N=C(/C(=O)N[C@@H]1C(=O)N2C(C(=O)O)=C(Cn3nnc(C)n3)CS[C@H]12)c1csc(N)n1
  nsP2pro primary: ?

N#Cc1ccc(C(c2ccc(C#N)cc2)n2cncn2)cc1
  nsP2pro primary: -3%

Cc1c(C(=O)N2CCOc3ccc(-c4ccc(N)nc4)cc3C2)ccc(S(C)(=O)=O)c1F
  nsP2pro primary: -9%

NS(=O)(=O)c1cc2c(cc1Cl)CN(C1CCCCC1)C2=O
  nsP2pro primary: -2%

COc1ccc(C[C@H]2COC(=O)[C@@H]2Cc2ccc(O[C@@H]3O[C@H](CO)[C@@H](O)[C@H](O)[C@H]3O)c(OC)c2)cc1OC
  nsP2pro primary: 1%[10 µM]

Cc1cc(NC(=O)c2cccc(NC(=O)/C=C/CN(C)C)c2)ccc1Nc1nccc(-c2cccnc2)n1
  nsP2pro primary: 215%[activator]

CN1CCN(Cc2ccc(NC(=O)Cc3ccc(Oc4cc(NC(=O)C5CC5)ncn4)cc3)cc2C(F)(F)F)CC1
  nsP2pro primary: 59%[activator]

Cc1cccc2c1NC(=O)C2(c1ccc(O)cc1)c1ccc(O)cc1
  nsP2pro primary: 14%

Fc1ccc2[nH]ccc2c1-c1nc(N2CCOCC2)c2sc(CN3CCN(CC4CC4)CC3)cc2n1
  nsP2pro primary: 18%

CC1Cc2ccccc2N1NC(=O)c1ccc(Cl)c(S(N)(=O)=O)c1 (stereo unspecified)
  nsP2pro primary: -7%

CN1CCCN=C1COC(=O)C(O)(c1ccccc1)C1CCCCC1 (stereo unspecified)
  nsP2pro primary: 2%

CCC(=O)N1CCN(c2ccc(-n3c(=O)ccc4cnc5ccc(-c6cnc7ccccc7c6)cc5c43)cc2C(F)(F)F)CC1
  nsP2pro primary: -2%[5.1 µM]

CC1COC(Nc2ccc3ncnc(Nc4ccc(OCc5nccs5)c(Cl)c4)c3c2)=N1 (stereo unspecified)
  nsP2pro primary: 159%[activator]

Cc1oc2nc3c(c(NC(=O)CN4CCCC4=O)c2c1C)CCCC3
  nsP2pro primary: -8%

COC(=O)c1sccc1S(=O)(=O)Nc1ccc(Nc2ccccc2)cc1OC
  nsP2pro primary: 6%

Cc1ncc(Cl)cc1NCc1ccc(C(=O)N[C@@H](CC2CCCC2)C(=O)NC2CC2)s1
  nsP2pro primary: -2%

Cc1nc2cc(C(=O)NCc3ccccn3)nn2c(C)c1Cc1cccc(Cl)c1
  nsP2pro primary: 16%

Cn1nccc1Nc1nccc(-c2ccn([C@H](CO)c3ccc(Cl)c(F)c3)c(=O)c2)n1
  nsP2pro primary: 11%

c1ccc(-c2cnc(Nc3ccc(OCCN4CCCC4)cc3)s2)cc1
  nsP2pro primary: 127%[activator]

CC(C)=CCC[C@](C)(O[C@@H]1O[C@H](CO)[C@@H](O)[C@H](O)[C@H]1O)[C@H]1CC[C@]2(C)[C@@H]1[C@H](O)CC1[C@@]3(C)CC[C@H](O)C(C)(C)C3[C@@H](O[C@@H]3O[C@H](CO)[C@@H](O)[C@H](O)[C@H]3O)C[C@]12C (stereo partly specified)
  nsP2pro primary: ?

COc1cccc(CN(C(=O)CC(C)(C)C)[C@H]2C[C@H](C(=O)N3CCNCC3)N(Cc3ccc4c(c3)OCO4)C2)c1
  nsP2pro primary: -3%

CCCC(Nc1nc(-c2ccc(NC(=O)NCC)c(OC)c2)ncc1C)c1cccnc1 (stereo unspecified)
  nsP2pro primary: 39%[activator]

Cc1ccn(-c2ccc(-c3ncco3)cc2)c(=O)c1-c1ccc2nc(N)ncc2c1
  nsP2pro primary: ?

C/C=C/C(=O)N(CC)c1ccccc1C
  nsP2pro primary: 3%

C[C@H]1Oc2cc(cnc2N)-c2c(nn(C)c2C#N)CN(C)C(=O)c2ccc(F)cc21
  nsP2pro primary: -9%&-4%

CC(C)(C)c1ccc(C(=O)Nc2cn3cc(-n4ccnc4)ccc3n2)cc1
  nsP2pro primary: 105%[activator]

COc1ccc(NC(=O)c2ccc(-c3ccc(-c4nnc(C)o4)cc3C)cc2)cc1N1CCN(C)CC1
  nsP2pro primary: 87%[activator]

CC(=O)Nc1ccc([C@H](C)C(=O)Nc2ncc(C(C)C)s2)cc1
  nsP2pro primary: -6%

CCOC(=O)[C@H](CCc1ccccc1)N[C@@H](C)C(=O)N1Cc2ccccc2C[C@H]1C(=O)O
  nsP2pro primary: -11%&-9%

O=C(Nc1ccc(Cl)cc1F)c1ccccc1O
  nsP2pro primary: -4%

CNc1nc(Nc2cnn([C@H]3CCN(C4COC4)C[C@@H]3F)c2Cl)ncc1C(F)(F)F
  nsP2pro primary: ?

O=C(COc1ccc(Cl)cc1)NC1CCC(NC(=O)COc2ccc(Cl)cc2)CC1 (stereo unspecified)
  nsP2pro primary: -12%

CO[C@@H]1COCC[C@@H]1N[C@@H]1CC[C@@](C(=O)N2CCc3ncc(C(F)(F)F)cc3C2)(C(C)C)C1
  nsP2pro primary: -9%[10 µM]

CCCn1c(=O)c2[nH]c(-c3ccc(OCC(=O)O)cc3)nc2n(CCC)c1=O
  nsP2pro primary: -7%

C[C@@H](Nc1cc(NS(=O)(=O)N2CCC2)nc(SCc2cccc(F)c2F)n1)[C@@H](O)CO
  nsP2pro primary: ?

O=c1cc(O)c(Cl)c[nH]1
  nsP2pro primary: -5%

COc1cccc2cc(-c3nc(C4CCC(C(=O)O)CC4)n4ncnc(N)c34)[nH]c12 (stereo unspecified)
  nsP2pro primary: 19%

CCCCNc1ccc(C(=O)OCCN(C)C)cc1
  nsP2pro primary: -4%

O=C(c1ccc(OC(F)F)c(C#Cc2ccccn2)c1)N1Cc2cccnc2C1
  nsP2pro primary: 2%

CCOc1nc(NC(=O)Cc2cc(OC)ccc2OC)cc(N)c1C#N
  nsP2pro primary: -8%

O=c1ccc2ccc(OCCCCN3CCN(c4cccc5sccc45)CC3)cc2[nH]1
  nsP2pro primary: 11%&56%

7 of the compounds above, tab-delimited.
compound	nsP2pro primary
CCOC(=O)[C@H](CCc1ccccc1)N[C@@H](C)C(=O)N1Cc2ccccc2C[C@H]1C(=O)O	-11%&-9%
O=C(Nc1ccc(Cl)cc1F)c1ccccc1O	-4%
CNc1nc(Nc2cnn([C@H]3CCN(C4COC4)C[C@@H]3F)c2Cl)ncc1C(F)(F)F	?
O=C(COc1ccc(Cl)cc1)NC1CCC(NC(=O)COc2ccc(Cl)cc2)CC1 (stereo unspecified)	-12%
CO[C@@H]1COCC[C@@H]1N[C@@H]1CC[C@@](C(=O)N2CCc3ncc(C(F)(F)F)cc3C2)(C(C)C)C1	-9%[10 µM]
CCCn1c(=O)c2[nH]c(-c3ccc(OCC(=O)O)cc3)nc2n(CCC)c1=O	-7%
C[C@@H](Nc1cc(NS(=O)(=O)N2CCC2)nc(SCc2cccc(F)c2F)n1)[C@@H](O)CO	?

Later entries.
O=C(c1cc2c(cc1F)OC(c1ccc(F)cc1)(c1ccc(Cl)cc1Cl)O2)N1CCOCC1 (stereo unspecified)
  nsP2pro primary: 8%

CNC(=O)c1cc(Oc2ccc(NC(=O)c3cccc(C(F)(F)F)c3)cc2)ccn1
  nsP2pro primary: 32%

CC[C@H](NC(C)C)[C@H](O)c1ccc(O)c2[nH]c(=O)ccc12
  nsP2pro primary: -9%

Cn1c(=O)cc(N2CCC[C@@H](N)C2)n(Cc2ccccc2C#N)c1=O
  nsP2pro primary: -13%&-16%&-7%

CC(=O)c1ccc2c(c1)[C@H](NC(=O)c1ccc(F)c(Cl)c1)[C@H](O)C(C)(C)O2
  nsP2pro primary: -5%

COc1ncc(Nc2ncc([C@@H](C)N3CCN(S(C)(=O)=O)CC3)cc2-c2nc(C)nc(N)n2)cc1F
  nsP2pro primary: ?

O=C(O)CCC(=O)c1ccc(-c2ccccc2)cc1
  nsP2pro primary: -6%

COc1ccc(-c2csc(NC(=O)[C@H]3CCCCN3S(=O)(=O)c3ccc(C)cc3)n2)cc1
  nsP2pro primary: 2%

Grouped by structure: those above containing a CF3 group
CN1CCN(Cc2ccc(NC(=O)Cc3ccc(Oc4cc(NC(=O)C5CC5)ncn4)cc3)cc2C(F)(F)F)CC1
  nsP2pro primary: 59%[activator]

CCC(=O)N1CCN(c2ccc(-n3c(=O)ccc4cnc5ccc(-c6cnc7ccccc7c6)cc5c43)cc2C(F)(F)F)CC1
  nsP2pro primary: -2%[5.1 µM]

CNc1nc(Nc2cnn([C@H]3CCN(C4COC4)C[C@@H]3F)c2Cl)ncc1C(F)(F)F
  nsP2pro primary: ?

CO[C@@H]1COCC[C@@H]1N[C@@H]1CC[C@@](C(=O)N2CCc3ncc(C(F)(F)F)cc3C2)(C(C)C)C1
  nsP2pro primary: -9%[10 µM]

CNC(=O)c1cc(Oc2ccc(NC(=O)c3cccc(C(F)(F)F)c3)cc2)ccn1
  nsP2pro primary: 32%
